KCNQ2 inh: KCNQ2 potassium channel inhibitors, primary screen, cell-based, CHO-K1, FluxOR thallium flux, B-score (AID 2156); O88943; 20 min; active compounds read low; only compounds with negative scores are shown here; some inactives read as strong as hits; B-score at 10 µM; 310,000 compounds, 1.1% hits;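 active = fluorescence ratio B-score at most minus 3 library SDs, with starting brightness B-score within 2 library SDs, cut at about -5.5 in these data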
Target sequence (O88943 whole entry, looked up): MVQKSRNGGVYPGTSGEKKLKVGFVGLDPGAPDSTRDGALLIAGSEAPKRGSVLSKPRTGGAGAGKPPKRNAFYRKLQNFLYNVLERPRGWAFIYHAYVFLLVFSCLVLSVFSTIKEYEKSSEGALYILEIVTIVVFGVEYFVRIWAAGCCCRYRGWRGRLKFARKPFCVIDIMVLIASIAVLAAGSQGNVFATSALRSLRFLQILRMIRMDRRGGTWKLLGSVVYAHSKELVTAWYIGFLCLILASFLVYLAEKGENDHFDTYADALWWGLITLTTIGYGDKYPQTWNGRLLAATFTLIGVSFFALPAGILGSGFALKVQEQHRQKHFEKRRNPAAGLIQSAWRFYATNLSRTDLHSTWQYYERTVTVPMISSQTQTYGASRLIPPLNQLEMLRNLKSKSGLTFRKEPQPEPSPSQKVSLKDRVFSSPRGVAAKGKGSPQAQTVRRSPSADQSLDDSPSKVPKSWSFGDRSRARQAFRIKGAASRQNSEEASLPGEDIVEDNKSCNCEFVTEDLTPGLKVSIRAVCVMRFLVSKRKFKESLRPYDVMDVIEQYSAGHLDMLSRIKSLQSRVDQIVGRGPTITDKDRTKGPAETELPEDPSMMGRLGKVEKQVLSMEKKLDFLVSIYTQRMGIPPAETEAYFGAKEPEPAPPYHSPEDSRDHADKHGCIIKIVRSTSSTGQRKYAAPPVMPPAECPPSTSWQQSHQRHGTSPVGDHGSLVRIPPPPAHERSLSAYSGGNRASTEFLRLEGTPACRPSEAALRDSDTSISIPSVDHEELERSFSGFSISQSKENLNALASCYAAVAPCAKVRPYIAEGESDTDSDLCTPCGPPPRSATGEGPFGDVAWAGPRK
KCNQ2 inh baseline: recorded beside KCNQ2 inh, whose call it bears; B-score; measured here: initial fluorescence intensity artifact check;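 brightness before thallium and not channel activity; 0 = typical well and far values either way flag optical interference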
* marks the source's active call; other numbers are inactive results; i = inactive. Some of the compounds tested. The share of hits here may be higher or lower than overall.

SMILES | KCNQ2 inh | KCNQ2 inh baseline
c1ccc(C2CC(c3cccs3)=NN2c2ccccc2)cc1 (stereo not given) | i | 2
CCCCN1C(=O)c2ccc(C(=O)Nc3ccccc3N3CCOCC3)cc2C1=O | i | -1.1
CC(C)(C)N(Cc1ccccc1)C(=O)CSc1nnc(CNc2ccc(F)cc2)o1 | i | -1.6
COC(=O)c1sc(NC(=O)Cc2cccs2)nc1C | i | -1.3
COc1ccc(C2=NN(C(=O)CN3CCCCC3)C(c3ccc(C)cc3)C2)cc1 (stereo not given) | i | -0.3
O=S(=O)(Nc1cccnc1)c1ccc(C2CCCCC2)cc1 | i | -1.3
C=C(C)C(=O)Nc1cccc(C2=NOC3(C2)C[C@@H](C(N)=O)N(C(=O)[C@H]2CCC(=O)N2)C3)c1 (stereo not given in full) | i | -0.92
OC(COc1ccc2ccccc2c1Cl)CN1CCOCC1 (stereo not given) | i | 0.09
O=C(N/N=C/c1cccc(Oc2ccccc2)c1)c1cccc(O)c1 | i | -1
CC(=O)N1CCN(c2cc3c(cc2F)c(=O)c(C(=O)O)cn3C2CC2)CC1 | i | 0.79
C=C(C)CNC(=S)N/N=C/c1ccccc1OCC(=O)O | i | 0.25
CC(C)CN1C(=O)c2ccc(NC(=O)c3ccco3)cc2C1=O | i | -0.05
Cc1c([N+](=O)[O-])c(C(=O)Nc2ccc3c(c2)OCCO3)nn1C | i | 0.88
CC(=O)Nc1ccc(C(=O)NNC(=O)CCCCC(=O)NNC(=O)c2ccc(NC(C)=O)cc2)cc1 | i | 2.2
C=CCn1c(CCNC(=O)c2cccs2)nnc1SCC(=O)c1ccc(Cl)cc1 | i | -0.85
CC1CN(C(=O)CSc2nc(-c3ccccc3)cs2)CC(C)O1 (stereo not given) | i | 0.22
O=C(C1CCC(C(=O)N2CCc3ccccc32)CC1)N1CCc2ccccc21 (stereo not given) | i | -0.04
Cc1ccc(S(=O)(=O)CC(=O)c2ccccc2)cc1 | i | -0.02
Cc1cc(/C=C(/C#N)c2nc3ccccc3[nH]2)c(C)n1-c1cc(C(=O)O)cc(C(=O)O)c1 | i | 6.9
CCCCC(=O)NC1(C(F)(F)F)C(=O)Nc2c1c(=O)[nH]c(=O)n2Cc1ccco1 (stereo not given) | i | 2.3

Next part; the last 4 above are carried over.
SMILES | KCNQ2 inh | KCNQ2 inh baseline
O=C(C1CCC(C(=O)N2CCc3ccccc32)CC1)N1CCc2ccccc21 (stereo not given) | i | -0.04
Cc1ccc(S(=O)(=O)CC(=O)c2ccccc2)cc1 | i | -0.02
Cc1cc(/C=C(/C#N)c2nc3ccccc3[nH]2)c(C)n1-c1cc(C(=O)O)cc(C(=O)O)c1 | i | 6.9
CCCCC(=O)NC1(C(F)(F)F)C(=O)Nc2c1c(=O)[nH]c(=O)n2Cc1ccco1 (stereo not given) | i | 2.3
CCC(C(=O)Nc1cc(OC)c(NC(=O)c2ccccc2)cc1OC)c1ccccc1 (stereo not given) | i | 0.66
COc1ccc2c(c1OC)C(=O)N1C2SC(C)(C)[C@H]1C(=O)NC(C)C (stereo not given in full) | i | -0.97
CCC(C)N1CC(=O)N2C(c3ccc(OC)cc3OC)c3[nH]c4ccccc4c3C[C@H]2C1=O (stereo not given in full) | i | -1.4
O=C(NCCOc1ccc(Cl)cc1)c1ccco1 | i | -0.45
O=C(Nc1ccc(S(=O)(=O)N2CCc3ccccc3C2)cc1)C1CCCO1 (stereo not given) | i | 2.1
Cc1cc(N2CCCC2=O)cc(C)c1S(=O)(=O)NCCOc1ccc(C(C)(C)C)cc1 | i | -0.42
O=C(CSc1nnc2scc(-c3ccccc3)n12)N1CCN(Cc2ccccc2)CC1 | i | -1.6
O=c1c(-c2ccc3c(c2)OCCO3)c(C(F)(F)F)oc2cc(O)cc(O)c12 | i | 0.99
CCCCNC(=O)CSc1nc(COc2ccccc2)nc2ccccc12 | i | -0.68
Nc1ccccc1Nc1ccccc1 | i | 0.05
O=C(CN1CCN(Cc2ccccc2)CC1)N/N=C/c1ccccc1F | i | -0.47
Cc1ccccc1NC(=O)c1c(F)c(F)c(F)c(F)c1F | i | -0.03
CC(C)(CCO)NC(=S)NC1CC2C=CC1C2 (stereo not given) | i | 0.02
Cc1c(O)ccc2c(-c3ccccc3)cc(=O)oc12 | i | -1
COC(CN(C)C(=O)C1CCC(CNS(=O)(=O)c2ccccc2)CC1)OC (stereo not given) | i | -0.9
COc1ccc(N=NC2=C(O)CC(C)(C)CC2=O)c(OC)c1 | i | -0.63
COc1ccc(CCN(C(=S)Nc2ccccc2)C2CC(=O)N(c3ccccc3)C2=O)cc1 (stereo not given) | i | -1.8
O=c1cc(Cn2ccnc2)c2cc3c(cc2o1)CCC3 | i | 0.42
Cc1c(C)n(C)c2ccc(C(=O)NCCc3ccco3)cc12 | i | 0.01
N=c1c(S(=O)(=O)c2ccc(Cl)cc2)cc2c(=O)n3ccccc3nc2n1CCc1ccccc1 | i | 4.6

Part of the list above in a different format.
SMILES,KCNQ2 inh,KCNQ2 inh baseline
Cc1ccccc1NC(=O)c1c(F)c(F)c(F)c(F)c1F,i,-0.03
CC(C)(CCO)NC(=S)NC1CC2C=CC1C2 (stereo not given),i,0.02

The results go on:
SMILES | KCNQ2 inh | KCNQ2 inh baseline
COc1ccc(Cn2c(O)c(C=Nc3ccccc3)c3ccccc3c2=O)cc1 | i | -0.68
CCOC(=O)/C(C#N)=C/c1c(N2CCN(C)CC2)nc2c(C)cccn2c1=O | i | -0.12
COCCNC(=O)[C@@H]1CSC2c3ccccc3C(=O)N21 (stereo not given in full) | i | -1.3
CN(C)C(=O)COC(=O)/C=C/c1ccccc1[N+](=O)[O-] | i | -0.6
CCN(CC)CCOc1nc(C)nc2c1oc1ccccc12 | i | 0.01
CC(=O)[C@@H]1[C@@H]2C(=O)N(c3ccc(F)c(Cl)c3)C(=O)[C@@H]2C2c3ccccc3C=CN21 (stereo not given in full) | i | 2.8
Cc1cc(C(=O)NCc2cccnc2)no1 | i | 0.05
Cc1ccc(-c2ccc(=O)n(Cc3ccc(F)cc3Cl)n2)cc1 | i | -1.3
COC(=O)c1cc(C(=O)c2ccc(Cl)cc2Cl)cn1C | i | 3.1
COc1cc(NC(C(=O)Nc2cccc(C(C)=O)c2)c2ccccc2)cc(OC)c1OC (stereo not given) | i | -1
C/C(=N\OC(=O)c1ccc(F)cc1)c1nccs1 | i | 1.2
COc1cccc2sc(NN)nc12 | i | -0.5
Cc1ccc(NCC(=O)c2ccc([N+](=O)[O-])cc2)cc1 | i | -0.93
Nc1cc(C(=O)c2ccccc2)ccc1N1CCOCC1 | i | -0.45
Cc1cc(C)cc(N(C(=O)c2csnn2)C(C(=O)NC(C)(C)C)c2cccs2)c1 (stereo not given) | i | 0.99
CCc1c(C)nc2ncnn2c1N1CCCC(C(=O)NCCc2ccccc2)C1 (stereo not given) | i | 1.8
O=C(CCNC(=O)C1CCN(S(=O)(=O)c2ccccc2)CC1)NCc1ccccn1 | i | 0.08
COc1ccc(NC(=O)c2oc3cc(C)c(C)cc3c2C)c(OC)c1 | i | -0.63
CC(CCc1ccccc1)NC(=O)CSc1ccccc1 (stereo not given) | i | -0.64
CC(C)CCn1nnnc1C(c1ccc(F)cc1)N1CCN(C(=O)c2ccco2)CC1 (stereo not given) | i | 2.5

Record cards, as listed above. Screens in order: KCNQ2 inh	KCNQ2 inh baseline
`Cc1cc(C)cc(N(C(=O)c2csnn2)C(C(=O)NC(C)(C)C)c2cccs2)c1` (stereo not given) is entered as i	0.99
`COc1cc(NC(C(=O)Nc2cccc(C(C)=O)c2)c2ccccc2)cc(OC)c1OC` (stereo not given) is entered as i	-1
`CC(CCc1ccccc1)NC(=O)CSc1ccccc1` (stereo not given) is entered as i	-0.64
`Cc1ccc(NCC(=O)c2ccc([N+](=O)[O-])cc2)cc1` is entered as i	-0.93
`Nc1cc(C(=O)c2ccccc2)ccc1N1CCOCC1` is entered as i	-0.45

Other results
SMILES | KCNQ2 inh | KCNQ2 inh baseline
O=C(NC1CCSc2ccccc21)c1ccc(C(F)(F)F)cc1 (stereo not given) | i | -0.55
CCN(C(=O)c1ccc(S(=O)(=O)N(C)C)cc1)C(C)C(=O)Nc1ccc(C)cc1 (stereo not given) | i | -0.09
C=CCn1c(C(C)(C)C)nc2ccccc21 | i | 0.3
CCOC(=O)c1sc(=NC(=O)c2ccccc2)n(C)c1C | i | -0.05
Fc1ccc2c(c1)C1C=CCC1C(c1cc3c(cc1Br)OCO3)N2 (stereo not given) | i | -0.24
CCN1CCN(c2cc(C)c3cc(NC(=O)Cc4ccccc4OC)ccc3n2)CC1 | i | -0.67
Nn1cc(-c2ccccc2)nc1SCC(=O)NCCc1ccccc1 | i | -0.09
CCOC(=O)NC(=O)CN1C(=O)NC2(CCc3ccccc32)C1=O (stereo not given) | i | 0.05
CN(C)C(=O)CSc1nnc(CCNC(=O)OC(C)(C)C)o1 | i | 0.69
O=C(NC(=S)Nn1cnc2c(cnn2-c2ccccc2)c1=O)c1ccccc1 | i | -0.08
O=C(C1=C[C@@H](c2ccc(Br)cc2)C[C@@H](OCCCCO)O1)N1CCN(Cc2ccccc2)CC1 | i | -1.4
COc1ccccc1-c1nnc(SCCN2CCOCC2)n1-c1ccc(C)cc1 | i | 0.11
CSc1nc2sc3c(c2c2nnnn12)CCCC3 | i | -0.81
CC1CCC(NC(=O)C2c3ccccc3C(=O)N2Cc2ccc3c(c2)OCO3)CC1 (stereo not given) | -6.1* | 0.67*
CN(Cc1ccco1)S(=O)(=O)c1nnc(NC(=O)c2ccc(F)cc2)s1 | i | 0.45
COc1ccc(N(CC(=O)Nc2ccc(C)c(C)c2)S(=O)(=O)c2c(C)noc2C)cc1 | i | 1.6
CCOC(=O)c1c(NC(=O)c2nn(CC)cc2Br)c(C#N)nn1-c1ccccc1 | i | -0.89
CC(C)(C)OC(=O)N1CCN(c2ccc(CNC(=O)c3ccc(Cl)cc3)cc2)CC1 | i | -0.63
Oc1ccccc1-c1nc(NCC2CCCO2)c2ccccc2n1 (stereo not given) | i | -1.2
COc1cc(NC(=O)Cn2nnc(-c3ccccc3N)n2)cc(OC)c1 | i | -1.3
CCn1c(C)cc(/C=C2\NC(=O)N(CC(=O)Nc3ccc(F)cc3)C2=O)c1C | i | -0.86
CN(Cc1cn(C)nc1-c1ccccc1F)CC1CCN(Cc2ccccc2)CC1 | i | -0.99
COC(=O)c1cc(C(=O)OC)n(Cc2ccc(Br)cc2)n1 | i | -1.5
O=C(COc1ccc(S(=O)(=O)Nc2ccccc2)cc1)NCc1ccncc1 | i | 1
COCCn1cnc2c1c(=O)n(CC(=O)c1ccc3c(c1)OCCO3)c(=O)n2Cc1ccccc1 | i | -0.38
COC(=O)c1ccc(N2C(=O)CC(N(C)Cc3ccccc3)C2=O)cc1 (stereo not given) | i | 0.73
CCOC(=O)C(CCCP(=O)(c1ccccc1)c1ccccc1)(NC(C)=O)C(=O)OCC | i | 1.7
Cc1ccc(N(C)S(=O)(=O)c2cc3c(cc2C)NC(=O)CO3)cc1 | i | 2
Cc1cccc(NS(=O)(=O)c2c(C(=O)N3CCOCC3)c(C)n(C)c2C)c1C | i | 0.1
Cc1cc(Br)ccc1OCCCCN1CCC(C)CC1 | i | 0.08
O=C(O)c1ccccc1C(=O)N1CCc2c([nH]c3ccccc23)C1C(F)(F)F (stereo not given) | i | -0.82
COc1ccc(CNc2cccc(C)n2)c(O)c1 | i | -0.03
CCN(c1ccccc1)S(=O)(=O)c1ccc(Cl)c(NC(=O)CSc2ncn[nH]2)c1 | i | -0.03
CCCCn1c(N)c(N(CCC(C)C)C(=O)c2[nH]c(C)c(C(=O)OCC)c2C)c(=O)[nH]c1=O | i | -0.54
CS(=O)(=O)Nc1ccc(C(=O)N2CCc3ccccc3C2)cc1 | i | 1.1
COc1ccc(NC(=O)c2nc3nccc(C)n3n2)cn1 | i | 1.1
COc1cc2c(cc1OC)CN(C(C)C(=O)N1CCc3ccccc31)CC2 (stereo not given) | i | -0.44
CCn1ncc(C(=O)Nc2ccc(S(=O)(=O)N3CCCC3)cc2)c1C | i | 0.92
COc1ccc(NC(=O)CN(C)CCOc2ccc(Cl)cc2)cc1OC | i | -0.9
Cn1c(SCC#N)nnc1-c1cnccn1 | i | 1.4
COc1ccc(OC)c(NS(=O)(=O)c2ccc(Cl)nc2)c1 | i | 0.74
O=C(c1ccc2c(c1)OCO2)N1CCNc2ccccc2C1 | i | 0.35
Cc1c(C(=O)N(CCc2ccccc2)Cc2ccccc2)cccc1[N+](=O)[O-] | i | 0.15
CCOC(=O)c1c(CN2CCCCC2)oc2ccc(OC)cc12 | i | 0.17
COC(=O)C1=C(C)N(c2ccc(C)c(C)c2)/C(=C/c2cccs2)C1=O | i | -0.94
COc1ccccc1C(=O)NN1C(=O)C2C3C=CC(O3)C2C1=O (stereo not given) | i | 1
COc1ccc(C(c2nnnn2C2CCCCC2)N2CCN(C)CC2)c(OC)c1 (stereo not given) | i | 0.43
COc1ccccc1C1c2c(C)nn(-c3ccccc3)c2NC(=O)C1NC(=O)c1ccccc1 (stereo not given) | i | -2.1
CC(Oc1cccc(Cl)c1)C(=O)Nc1ccccc1N1CCCC1 (stereo not given) | i | -0.04
O=C(Nc1ccc(S(=O)(=O)Nc2cnc3ccccc3n2)cc1)c1ccc(Cl)c([N+](=O)[O-])c1 | i | -0.51
CCCCC(=O)NC(c1ccccc1Cl)c1ccc2cccnc2c1O (stereo not given) | i | 0.97
CCc1cccc(C)c1NC(=O)COC(=O)c1c2c(nc3ccccc13)/C(=C\c1cccs1)CCC2 | i | 1.1
Cc1cccc(/C=C(\C#N)C(=O)Nc2ccccn2)c1 | i | 3.1

Screens from PubChem BioAssay.
